Ecoli rRNA inh = inhibitors of bacterial rRNA selective over humanized ribosomes; E. coli WT GFP vs humanized-ribosome RFP mutants, fluorescence, 24 h; hits give low values; DMSO median 0, no signal -100; GFP signal change (wild-type ribosome), % (no concentration beside the values); 1.6% of 350,000 active; AID 720706;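 active = significant combined selectivity score with lowered wild-type GFP, culture density cut under 30%, mutant RFP and density less affected; inactive = any of these conditions unmet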; note: one replicate is shown; some compounds called inactive have numbers as strong as hits
FGF22 binding = FGF22 (human) thermal shift binding. recombinant FGF22 thermal shift, SYPRO orange fluorescence; percent of sucrose octasulfate shift, DMSO zero. calls only at 9.99 µM. 1.5% of 340,000 active. AID 651658;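 active = melting point raised past a set limit in the mean and every replicate; three in four hits are not shown here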
Target sequence (Q9HCT0 whole entry, looked up): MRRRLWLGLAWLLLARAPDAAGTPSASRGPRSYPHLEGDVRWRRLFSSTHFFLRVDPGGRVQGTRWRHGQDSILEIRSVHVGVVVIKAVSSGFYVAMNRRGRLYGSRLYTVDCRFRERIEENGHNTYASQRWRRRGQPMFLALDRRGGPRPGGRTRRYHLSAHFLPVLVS
MLL AF4-AF9 inh = inhibitors of human MLL-AF4/AF9 interaction; AlphaScreen, biotin-AF4 peptide binding to FLAG-AF9; inhibition, % at 10 µM; AID 651704; 0.47% of 350,000 active;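 active = every replicate reaching a set inhibition limit, whatever the replicate mean, cut at about 25% in these data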;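 note: 0% = plate neutral control median and 100% = total signal loss; the record names both 10 and 1 µM as test concentration; the first replicate is given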
Target sequence (P42568 whole entry, looked up): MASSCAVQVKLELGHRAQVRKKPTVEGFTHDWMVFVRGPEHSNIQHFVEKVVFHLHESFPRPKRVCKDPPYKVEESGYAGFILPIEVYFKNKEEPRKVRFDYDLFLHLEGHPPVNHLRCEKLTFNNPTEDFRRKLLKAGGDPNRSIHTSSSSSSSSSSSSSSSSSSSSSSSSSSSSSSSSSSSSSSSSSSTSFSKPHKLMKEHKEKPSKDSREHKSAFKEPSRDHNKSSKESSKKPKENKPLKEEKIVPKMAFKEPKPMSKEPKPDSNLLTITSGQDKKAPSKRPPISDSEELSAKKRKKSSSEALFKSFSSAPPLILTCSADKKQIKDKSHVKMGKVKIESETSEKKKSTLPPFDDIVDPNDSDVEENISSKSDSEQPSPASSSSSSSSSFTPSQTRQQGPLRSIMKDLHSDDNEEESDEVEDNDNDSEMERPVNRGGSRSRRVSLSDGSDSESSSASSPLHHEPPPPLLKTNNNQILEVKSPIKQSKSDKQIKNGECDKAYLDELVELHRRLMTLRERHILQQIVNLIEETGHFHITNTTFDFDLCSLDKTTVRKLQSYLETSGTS
Ecoli rRNA inh OD600 = further read-out of Ecoli rRNA inh, marked with its call; OD600 change, %; measured here: OD600 growth;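 optical density of the mix in the first replicate; 0 = DMSO median and -100 = no signal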
Ecoli rRNA inh RFP = recorded beside Ecoli rRNA inh, whose call it bears; RFP signal change, %; measured here: RFP humanized mutant strains;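 first replicate; 0 = DMSO median and -100 = no signal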
Starred values were filed as active, the others as inactive; i = inactive; x = no result given; + = active, no number.

Ecoli rRNA inh | Ecoli rRNA inh RFP | MLL AF4-AF9 inh | FGF22 binding | Ecoli rRNA inh OD600 | Molecule
2 | 0.1 | -1.7 | i | -3 | O=C(Cc1cccnc1)N1CC2(C1)[C@@H](c1ccccc1)[C@@H](CO)N2C(=O)C1CCCCC1
-49 | -6.7 | 16 | i | -80 | Cc1cccc(-c2ccc3[nH]c4c(c3c2)CCN2C[C@@H]([C@H](C)O)[C@@H](N(C)C(=O)NC3CCCCC3)C[C@@H]42)c1
1 | -2.3 | -13 | i | 2 | CS(=O)(=O)Nc1ccc2c(c1)[C@@H]1C[C@H](CC(=O)N3CCOCC3)O[C@H](CO)[C@@H]1O2
-25* | 3.6* | 2.6 | i | -13* | O=C(Nc1nnc([C@H]2C[C@H](O)[C@@H](CO)O2)s1)Nc1cccc(Cl)c1Cl
-7 | 0.1 | 0.3 | i | -20 | C[C@@H]1CN([C@@H](C)CO)C(=O)Cc2cc(NC(=O)Cc3ccccc3)ccc2O[C@H]1CN(C)S(=O)(=O)c1ccc(F)cc1
-6 | 1.8 | 1.0 | i | -16 | C[C@@H]1CN([C@H](C)CO)C(=O)CCCn2nncc2CO[C@@H]1CN(C)Cc1ccccc1C(F)(F)F
4 | -5.0 | -2.9 | + | 5 | Cc1ccc(S(=O)(=O)Nc2ccc3c(c2)CC(=O)N([C@H](C)CO)C[C@@H](C)[C@H](CN(C)C(=O)Nc2ccccc2)O3)cc1
4 | 4.6 | 27* | i | -8 | C[C@@H]1CCCCO[C@H](CN(C)Cc2ccc3c(c2)OCO3)[C@H](C)CN([C@@H](C)CO)C(=O)c2cc(NC(=O)Nc3ccc4c(c3)OCO4)ccc2O1
0 | -1.6 | -2.2 | i | 3 | COc1ccc(S(=O)(=O)Nc2ccc3c(c2)C(=O)N([C@H](C)CO)C[C@@H](C)[C@@H](CN(C)S(C)(=O)=O)OCCCC[C@@H](C)O3)cc1
-3 | 2.1 | 0.4 | i | -7 | COc1ccc(S(=O)(=O)N(C)C[C@H]2Oc3ccc(NS(=O)(=O)c4cccs4)cc3C(=O)N([C@@H](C)CO)C[C@@H]2C)cc1
-1 | 0.8 | 0.0 | i | 3 | CCC(=O)N1[C@H](CO)[C@@H](c2ccccc2)C12CN(Cc1cc(F)ccc1F)C2
1 | -0.3 | 1.4 | i | 4 | C[C@H]1CN([C@@H](C)CO)C(=O)c2cc(/C=C/c3ccccc3)cnc2O[C@H]1CN(C)S(=O)(=O)c1cn(C)cn1
-4 | 0.2 | 1.5 | i | -15 | Cc1noc(C)c1NC(=O)Nc1cccc2c1O[C@H](CN(C)Cc1ccc(Oc3ccccc3)cc1)[C@H](C)CN([C@@H](C)CO)C2=O
6 | -1.0 | -2.4 | i | 9 | Cc1noc(C)c1NC(=O)N(C)C[C@H]1Oc2ccc(NS(=O)(=O)c3ccc(Cl)cc3)cc2CC(=O)N([C@@H](C)CO)C[C@H]1C
1 | 9.3 | 1.7 | i | -11 | COc1ccc2c3c(n(C)c2c1)[C@@H](CO)N(C(=O)C1CCC1)CC31CN(C(=O)Nc2cccc(F)c2)C1
-2 | 1.2 | -1.3 | i | 2 | C[C@@H]1CN([C@H](C)CO)C(=O)c2cc(NC(=O)CCCCCC(=O)Nc3ccccc3N)ccc2O[C@@H]1CN(C)S(=O)(=O)c1ccc(Cl)cc1
-17 | -5.3 | 0.5 | i | -30 | COc1ccccc1NC(=O)N1C[C@H](O)COC[C@@H]2O[C@@H](CC(=O)N3CCC(Cc4ccccc4)CC3)CC[C@H]21
5 | -1.2 | -2.1 | i | 12 | COc1ccc(NC(=O)Nc2ccc3c(c2)[C@@H]2C[C@@H](CC(=O)NCc4ccncc4)O[C@@H](CO)[C@@H]2O3)cc1
-1 | -1.2 | 6.2 | i | 3 | C[C@H]1CN([C@@H](C)CO)C(=O)c2c(c3ccccc3n2C)-c2ccccc2CO[C@H]1CN(C)C(=O)[C@@H](Cc1ccccc1)N(C)C
1 | 0.6 | 3.1 | i | 0 | CCC(CC)C(=O)N(C)c1c(C)nc2c(OCc3cccc(OC)c3)cccn12
-2 | -0.6 | -3.0 | i | -3 | C[C@@H]1CN([C@H](C)CO)C(=O)c2cc(NC(=O)NC3CCCCC3)ccc2O[C@@H]1CN(C)S(=O)(=O)c1ccc(F)cc1
0 | 5.3 | 1.2 | i | -6 | C[C@@H]1CN([C@@H](C)CO)S(=O)(=O)c2ccc(C3=CCCCC3)cc2O[C@@H]1CN(C)S(=O)(=O)c1cn(C)cn1
9 | 5.0 | -1.1 | i | 14 | Cn1c(Oc2ccncc2)nc2cc(-c3ccsc3)sc2c1=O
-3 | -0.6 | -3.7 | i | -8 | C[C@H]1CN([C@@H](C)CO)S(=O)(=O)c2ccc(-c3ccncc3)cc2O[C@H]1CN(C)C(=O)CC1CC1
-1 | 0.6 | -4.9 | i | -2 | O=C(C[C@H]1CC[C@H](NS(=O)(=O)c2ccc(F)cc2)[C@@H](CO)O1)NC1CCCCC1
-4 | -2.3 | -22 | i | -6 | C[C@@H]1CN([C@@H](C)CO)C(=O)c2cc(NC(=O)Nc3ccc(F)cc3)ccc2O[C@H]1CN(C)Cc1ccncc1
20 | 4.5 | -2.6 | i | 19 | COC(=O)/C=C1\OCc2cc(C)ccc21
5 | -2.3 | -2.8 | i | 12 | CC(C)NC(=O)Nc1ccc2c(c1)C(=O)N([C@H](C)CO)C[C@H](C)[C@@H](CN(C)C)OCCCC[C@@H](C)O2
-14 | -5.2 | 17 | i | -22 | CN1c2ccc(-c3ccc(F)cc3)cc2[C@@H]2[C@@H](CCN2C(=O)Cc2cccnc2)[C@@H]1CO
2 | -1.4 | -0.7 | i | 11 | O=C(C1CCCC1)N1C[C@@H]2[C@H](c3ccccc31)[C@@H](CO)N2C(=O)Cc1ccccn1
7 | 5.0 | -0.3 | i | 5 | C[C@H](CO)N1C[C@H](C)[C@@H](CN(C)C)Oc2cc(C#Cc3cccnc3)ccc2S1(=O)=O
3 | -2.6 | -4.3 | i | 4 | C[C@@H]1CN([C@H](C)CO)C(=O)c2cc(NC(=O)Cn3cnnn3)ccc2O[C@@H]1CN(C)S(=O)(=O)c1cn(C)cn1
-2 | -3.1 | -0.4 | i | 4 | O=C(C[C@@H]1C[C@H]2c3cc(NC(=O)NC4CCCC4)ccc3O[C@H]2[C@@H](CO)O1)NCc1ccc(Cl)cc1
79 | 18 | 2.7 | i | 6 | O=[N+]([O-])c1cc2c(c3cccnc13)COCO2
-54 | -14 | 1.0 | i | -71 | CS(=O)(=O)N1CC(=O)N2[C@H](C1)[C@@H](c1ccc(C#Cc3ccc(F)cc3)cc1)[C@@H]2CO
1 | -2.6 | -5.3 | i | 2 | C[C@@H]1CN([C@@H](C)CO)C(=O)c2cc(C#CC(C)(C)O)cnc2O[C@@H]1CN(C)Cc1ccccn1
3 | -0.2 | 0.7 | i | 15 | CCc1nc2ccc(C(=O)Nc3cc(-c4ccccc4)ccc3OC)cn2c1N(C)CCC(C)C
-13 | -4.0 | -1.2 | i | -9 | O=C(Nc1oc2ccccc2c(=O)c1-c1ccccc1)c1ccco1
0 | -0.2 | 4.2 | i | 2 | C[C@H](CO)N1C[C@H](C)[C@@H](CN(C)Cc2ccc(Oc3ccccc3)cc2)Oc2c(NC(=O)CCCCCC(=O)Nc3ccccc3N)cccc2C1=O
0 | -3.8 | -1.5 | i | 7 | CCCNC(=O)Nc1ccc2c(c1)OC[C@H](C)N(Cc1ccccn1)C[C@H](C)[C@H](OC)CN(C)C2=O
4 | -3.1 | -4.0 | i | 2 | CO[C@@H]1CN(C)C(=O)c2cc(NS(=O)(=O)c3ccccc3C)ccc2OC[C@@H](C)N(S(C)(=O)=O)C[C@@H]1C
1 | 4.0 | -0.4 | i | -5 | Cc1ccc(S(=O)(=O)N(C)C[C@@H]2Oc3ccc(NS(=O)(=O)c4ccccc4)cc3C(=O)N([C@@H](C)CO)C[C@@H]2C)cc1
2 | 0.2 | 1.8 | i | 5 | COc1cccc(CNC(=O)C[C@H]2CC[C@H](NC(C)=O)[C@H](CO)O2)c1
1 | -1.6 | -0.2 | i | 5 | COc1cccc(S(=O)(=O)Nc2ccc3c(c2)[C@H]2C[C@@H](CC(=O)N(C)C)O[C@@H](CO)[C@H]2O3)c1
8 | -1.1 | 2.8 | i | 9 | C[C@@H]1CCCCO[C@H](CN(C)C(=O)C2CCCCC2)[C@@H](C)CN([C@H](C)CO)C(=O)c2cc(NC(=O)Nc3ccc(F)cc3)ccc2O1
0 | -1.3 | -6.7 | i | -5 | COc1ccc(NC(=O)Nc2ccc3c(c2)C(=O)N([C@H](C)CO)C[C@H](C)[C@H](CN(C)Cc2ccncc2)O3)cc1
0 | 0.1 | -30 | i | 2 | Cc1noc(C)c1NC(=O)Nc1ccc2c(c1)CC(=O)N([C@@H](C)CO)C[C@@H](C)[C@H](CN(C)S(=O)(=O)c1ccccc1)O2
-5 | -2.2 | 2.3 | i | -8 | CCS(=O)(=O)Nc1ccc2c(c1)C(=O)N(C)C[C@@H](OC)[C@H](C)CN(CC1CCCCC1)[C@H](C)CO2
1 | -3.1 | -3.0 | i | -6 | C[C@H](CO)N1C[C@H](C)[C@H](CN(C)S(=O)(=O)c2ccc(Cl)cc2)Oc2ccc(NC(=O)Cc3ccccc3)cc2C1=O
-5 | 4.3 | -6.7 | i | -9 | CC(C)(C)S(=O)(=O)/C(C#N)=C/c1cccn1S(=O)(=O)c1ccccc1

Following part.
Ecoli rRNA inh | Ecoli rRNA inh RFP | MLL AF4-AF9 inh | FGF22 binding | Ecoli rRNA inh OD600 | Molecule
-3 | -0.4 | -5.3 | i | -3 | COCC(=O)Nc1ccc2c(c1)[C@@H]1C[C@@H](CC(=O)N3CCc4ccccc4C3)O[C@@H](CO)[C@@H]1O2
3 | -1.9 | 3.4 | i | -3 | O=C(C[C@@H]1CC[C@H]2[C@@H](COC[C@H](O)CN2C(=O)c2ccc3c(c2)OCO3)O1)NCCN1CCCCC1
-63 | -19 | 1.2 | i | -80 | CC(C)Nc1nc(NCCOc2ccccc2Cl)c2sccc2n1
-17 | -3.8 | -1.3 | x | -33 | COC(=O)[C@]1(CC(C)C)NC=C(C(=O)c2ccccc2)[C@@H]1c1cccc(C(F)(F)F)c1
6 | -0.5 | -12 | i | 6 | C[C@H]1CCCCO[C@@H](CN(C)C)[C@@H](C)CN([C@@H](C)CO)C(=O)c2cc(NC(=O)NC3CCCCC3)ccc2O1
4 | -0.8 | -0.8 | i | 3 | CCS(=O)(=O)Nc1ccc2c(c1)C(=O)N(C)[C@H]1CC[C@@H](CC(=O)N3CCOCC3)O[C@@H]1CO2
3 | -2.4 | 4.1 | + | 8 | C[C@H](CO)N1C[C@H](C)[C@@H](CN(C)C(=O)C2CC2)OCc2ccccc2-c2ccccc2C1=O
1 | -2.0 | 13 | i | -3 | C[C@H]1CN([C@@H](C)CO)C(=O)Cc2cc(NC(=O)Nc3ccc4c(c3)OCO4)ccc2O[C@@H]1CN(C)CC1CC1
7 | -4.1 | -3.0 | i | 10 | CC(C)CC#Cc1cnc2c(c1)C(=O)N([C@H](C)CO)C[C@H](C)[C@@H](CN(C)Cc1ccccc1C(=O)O)O2
0 | 3.7 | 1.4 | i | -11 | COc1ccc(C(=O)N2CCCCC2c2cc(C(=O)NCc3ccccc3)no2)cc1 (centres undefined)
-1 | -3.3 | -0.4 | i | 1 | COc1ccc(CN2C(=O)C(CC(=O)NCCCCc3ccccc3)CC(C(=O)N3CCOCC3)=C2C)cc1 (centres undefined)
3 | -0.7 | 1.3 | i | -3 | O=C(O)C1CCCN(C(=O)/C=C/c2ccccc2)CC1 (centres undefined)
1 | -2.3 | 1.8 | i | 9 | CC=Cc1ccc2n(c1=O)C[C@@H]1N[C@H]2[C@H](C(=O)NCc2ccc3c(c2)OCO3)[C@H]1CO (mixture of isomers)
3 | 2.5 | 1.3 | i | 2 | COCC(=O)N1C[C@H](C)[C@@H](OC)CN(C)C(=O)c2ccc(NC(=O)c3cc(C)on3)cc2OC[C@H]1C
13 | 3.9 | -0.8 | i | 20 | CCOC(=O)C1=C(C(=O)OCC)C2N(Cc3ccc(Br)cc3)c3ccccc3[C@@]23C[C@@H](C(=O)OC)N(S(=O)(=O)c2ccc(OC)cc2)C3=N1 (some centres undefined)
2 | -7.3 | 2.6 | i | -23 | COc1cccc(CN2CCC2(C)C(=O)Nc2cccc3cccnc23)c1OC (centres undefined)
1 | -5.4 | -17 | i | 9 | COc1cccc(-c2cnc3c(c2)C(=O)N([C@H](C)CO)C[C@@H](C)[C@@H](CN(C)C(=O)CN(C)C)O3)c1

Four successive compounds out of the list so far, for reference:
Ecoli rRNA inh | Ecoli rRNA inh RFP | MLL AF4-AF9 inh | FGF22 binding | Ecoli rRNA inh OD600 | Molecule
3 | 2.5 | 1.3 | i | 2 | COCC(=O)N1C[C@H](C)[C@@H](OC)CN(C)C(=O)c2ccc(NC(=O)c3cc(C)on3)cc2OC[C@H]1C
13 | 3.9 | -0.8 | i | 20 | CCOC(=O)C1=C(C(=O)OCC)C2N(Cc3ccc(Br)cc3)c3ccccc3[C@@]23C[C@@H](C(=O)OC)N(S(=O)(=O)c2ccc(OC)cc2)C3=N1 (some centres undefined)
2 | -7.3 | 2.6 | i | -23 | COc1cccc(CN2CCC2(C)C(=O)Nc2cccc3cccnc23)c1OC (centres undefined)
1 | -5.4 | -17 | i | 9 | COc1cccc(-c2cnc3c(c2)C(=O)N([C@H](C)CO)C[C@@H](C)[C@@H](CN(C)C(=O)CN(C)C)O3)c1

An excerpt, so the mix of outcomes need not match the whole.
